# FPR: small-molecule ligands of human FPR – U937-FPR cells, fMLFK-FITC, flow cytometry, primary screen (AID 362) | U937-FPR cells, fMLFK-FITC displacement, flow cytometry; active compounds read high; test concentration not given here; most inactive calls were filed without a number and no value below 0 was filed | inhibition, % | hit rate 1% among 4,300;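 active means inhibition of labelled peptide binding to the formyl peptide receptor of at least 65%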;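 further: plate controls were buffer control wells for no effect and unlabeled fMLFF blocking peptide for full effect; higher means less cell fluorescence so more probe displaced; part of the set was picked by virtual screening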
# An asterisk follows results filed as active; i = inactive. Only part of the results is shown; the hit share may differ from the screen's.
no. | FPR | Molecule
1 | i | CCOc1ccc(C2C(C(=O)OCC(C)C)=C(C)NC3=C2C(=O)CC(c2ccc(Cl)cc2)C3)cc1OC (stereo unspecified)
2 | i | CC(=O)N1CCCc2cc(S(=O)(=O)NC(C(=O)NCc3cccs3)C(C)C)ccc21 (stereo unspecified)
3 | 17 | COCCOC(=O)C1=C(C)NC2=C(C(=O)C(C(=O)OC)C(C)C2)C1c1ccc(OC)cc1 (stereo unspecified)
4 | 7 | CCCOCCOC(=O)C1=C(C)NC2=C(C(=O)C(C(=O)OC)C(C)C2)C1c1ccc(O)c(OC)c1 (stereo unspecified)
5 | i | CCCCn1c(SCC(=O)OCC)nc2c(sc(=S)n2CCc2ccccc2)c1=O
6 | i | O=C(CSc1nc2ccccc2c(=O)n1CC1CCC(C(=O)N2CCN(c3ccccc3)CC2)CC1)NCc1ccco1 (stereo unspecified)
7 | i | CC1(C)CC(=O)C2=C(C1)OC(N)=C(C#N)C2c1ccc(OC(=O)c2ccccc2)cc1 (stereo unspecified)
8 | i | CCOC(=O)CSc1nc2ccccc2c(=O)n1CC1CCC(C(=O)NCc2ccccc2)CC1 (stereo unspecified)
9 | i | CC1CCCC(NC(=O)CSc2c3c(nc4ccccc24)CCCC3)C1C (stereo unspecified)
10 | 14 | CC(C)C(NCCC(O)c1ccc(Br)cc1)C(=O)O (stereo unspecified)
11 | i | CCCc1c(C(=O)OCC)[nH]c2c1C(=O)CC(c1ccc(OC)cc1)C2 (stereo unspecified)
12 | 11 | CC1(C)CC(=O)C(C(C2=C(O)CC(C)(C)CC2=O)c2ccc(O)cc2O)C(=O)C1 (stereo unspecified)
13 | i | CCCCNC(=O)C1CCC(CNS(=O)(=O)c2ccc(C)cc2)CC1 (stereo unspecified)
14 | i | CCCCC(NS(=O)(=O)c1ccc(OC)cc1)C(=O)O (stereo unspecified)
15 | 10 | COC(=O)C1C(=O)C2=C(CC1C)NC(C)=C(C(=O)OCCOC(C)C)C2c1ccc(O)cc1 (stereo unspecified)
16 | i | CC(=O)Nc1ccc(S(=O)(=O)NCC2CCC(C(=O)NCCN(CC(C)C)CC(C)C)CC2)cc1 (stereo unspecified)
17 | 23 | CCOC(=O)C1=C(C)NC2=C(C(=O)C(C(=O)OC)C(C)C2)C1c1ccc(O)cc1 (stereo unspecified)
18 | 1 | COC(=O)C1C(=O)C2=C(CC1C)NC(C)=C(C(=O)OC(C)C)C2c1cc(OC)c(O)c(OC)c1 (stereo unspecified)
19 | 0 | CCCOc1ccc(C2C(C(=O)OCCOC)=C(C)NC3=C2C(=O)C(C(=O)OC)C(C)C3)cc1 (stereo unspecified)
20 | i | O=C(CSc1c2c(nc3ccccc13)CCCC2)NCc1cccnc1
21 | 1 | CCOC(=O)C1=C(C)NC(SCC(=O)c2ccc(Cl)cc2)=C(C#N)C1CC(C)C (stereo unspecified)
22 | 3 | CCc1ccc(C2NC(=O)NC3=C2C(=O)CC(C)(C)C3)cc1 (stereo unspecified)
23 | 26 | COc1cc2nc(-c3cccnc3)n(-c3cc(C(C)(C)C)c(O)c(C(C)(C)C)c3)c2cc1OC
24 | 10 | O=C(CCN1CCN(Cc2ccccc2)CC1)N1CCCc2c1c(=O)oc1ccc(O)cc21
25 | 26 | CCOC(=O)C1=C(C)NC2=C(C(=O)C(C(=O)OC)C(C)C2)C1c1ccc(C(=O)OC)cc1 (stereo unspecified)
26 | 28 | CC(C)C1=CC23CCC4C(C)(C(=O)O)CCCC4(C)C2CC1C1C(=O)N(c2cccc(C(=O)O)c2)C(=O)C13 (stereo unspecified)
27 | i | CCC(C)(C(=O)NC1CCCC1)N(Cc1cccs1)C(=O)CNC(C)=O (stereo unspecified)
28 | i | CCCCn1c(SCC(=O)Nc2ccc(OC)cc2OC)nc2ccc(N3CCOCC3)cc2c1=O
29 | i | CCCCn1c(=NC(=O)C(C)(C)Oc2ccc(Cl)cc2)c(C(=O)OCC)cc2c(=O)n3ccccc3nc21
30 | i | CC(=O)Nc1ccc(S(=O)(=O)NCC2CCC(C(=O)N3CCCCCC3)CC2)cc1 (stereo unspecified)
31 | i | CC1=C(C(=O)OCC2CCCCC2)C(c2ccc3c(c2)OCO3)NC(=O)N1 (stereo unspecified)
32 | i | C/C=C/COC(=O)C1=C(C)NC(=O)NC1c1ccc(O)c(OCC)c1 (stereo unspecified)
33 | i | O=C1C2C3C=CC(C3)C2C(=O)N1c1ccc(N2CCCC(CO)C2)c([N+](=O)[O-])c1 (stereo unspecified)
34 | 4 | COc1ccccc1CNS(=O)(=O)c1ccc(F)c(C(=O)Nc2ccc(Cl)cc2C(F)(F)F)c1
35 | i | COC(=O)C(NC(=O)C(Cc1c[nH]c2ccccc12)NC(=O)OCc1ccccc1)C(C)C (stereo unspecified)
36 | i | O=C1C2C3C=CC(C3)C2C(=O)N1c1ccc(NCCSCc2ccccc2)c([N+](=O)[O-])c1 (stereo unspecified)
37 | i | CCOC(=O)C1=C(C)NC2=C(C(=O)C(C(=O)OCC)C(c3ccc(OC)cc3)C2)C1c1ccccc1C(F)(F)F (stereo unspecified)
38 | 4 | COc1ccc(N2C(=O)C3C4CC5C6(C)CCCC(C)(C(=O)O)C6CCC5(C=C4C(C)C)C3C2=O)cc1 (stereo unspecified)
39 | i | O=C(O)C1CCC(CNS(=O)(=O)c2cccs2)CC1 (stereo unspecified)
40 | i | C#C[C@]1(OC(C)=O)CCC2C3CCc4cc(OC(C)=O)ccc4[C@@]3(O)C(O[N+](=O)[O-])CC21C (stereo partly specified)
41 | 4 | CC(C)Cn1cc(C(=O)N2CCN(c3cccc(C(F)(F)F)c3)CC2)c2c3ccccc3n(C)c2c1=O
42 | i | CCCCOC(=O)C(C)Oc1ccc2c(=O)c(Oc3cccc(C)c3)c(C(F)(F)F)oc2c1 (stereo unspecified)
43 | i | CC1CC(C)CN(C(=O)CN2C(=O)CSc3ccc(S(=O)(=O)N(C)C4CCCCC4)cc32)C1 (stereo unspecified)
44 | i | CC(C)CCNC(=O)CSc1nc2ccsc2c(=O)n1CCCCCC(=O)NCCc1ccccc1
45 | i | O=C(NCC1(c2ccc3c(c2)OCCO3)CCCC1)c1cccc([N+](=O)[O-])c1
46 | 1 | CC(C)Cn1cc(C(=O)NCC2(c3ccccc3)CCCC2)c2c3ccccc3n(C)c2c1=O
47 | i | CC(=NCC1CCCO1)C1=C(O)CC(C)(C)CC1=O (stereo unspecified)
48 | i | O=C(O)CSc1nc(-c2ccccc2)nc2c1CCCC2
49 | i | CC1CC(C)CN(C(=O)c2ccc(Sc3cccc(Cl)c3)c([N+](=O)[O-])c2)C1 (stereo unspecified)
50 | 39 | CCCc1ccc(Oc2c(C(F)(F)F)oc3c(C)c(O)ccc3c2=O)cc1
51 | 3 | CCOC(=O)c1c(-c2ccc(OC)cc2)csc1NC(=O)C1CCCCC1C(=O)O (stereo unspecified)
52 | 17 | CCCOc1ccc(C2C(C(=O)OCC)=C(C)NC3=C2C(=O)C(C(=O)OC)C(C)C3)cc1 (stereo unspecified)
53 | 10 | COCC(=O)NC1(c2nnnn2CCOC(=O)Nc2ccc(Cl)cc2)CCCC1
54 | 3 | Cc1cccc(CCNC(=O)c2cn(CC(C)C)c(=O)c3c2c2ccccc2n3C)c1
55 | 7 | CCCc1cc2c(=O)c(-c3ccc(C(=O)OCC)o3)c(C(=O)OCC)oc2cc1OC
56 | i | Cc1ccc(C(=O)COC(=O)C(C(C)C)N2C(=O)C3C4C=CC(C4)C3C2=O)cc1 (stereo unspecified)

# (list continues)
no. | FPR | Molecule
57 | i | CCOc1c(I)cc(C2C3=C(CC(C)(C)CC3=O)OC3=C2C(=O)CC(C)(C)C3)cc1OC
58 | 16 | O=S(=O)(Nc1cccc(C(F)(F)F)c1)c1ccc(NS(=O)(=O)c2ccc3c(c2)OCCO3)cc1
59 | 7 | CCOc1cc(C2C3=C(CC(C)(C)CC3=O)OC3=C2C(=O)CC(C)(C)C3)ccc1OC(=O)c1ccccc1
60 | 6 | COCCCNC(=O)CSc1nc2ccccc2c(=O)n1CC1CCC(C(=O)NCc2ccccc2Cl)CC1 (stereo unspecified)
61 | 20 | CCOc1ccc(CCNC(=O)Cn2cnc3sc(C)c(S(=O)(=O)N4CCC(C)CC4)c3c2=O)cc1OCC
62 | i | CCOc1ccc2nc(NC(=O)C(NS(=O)(=O)c3ccc4c(c3)CCN4C(C)=O)C(C)C)sc2c1 (stereo unspecified)
63 | 19 | COc1cc2nc(C)n(-c3cc(C(C)(C)C)c(O)c(C(C)(C)C)c3)c2cc1OC
64 | i | CC(C)C(NC=C1C(=O)OC(C)(C)OC1=O)C(=O)O (stereo unspecified)
65 | i | CC1(C)CC(=O)C2=C(C1)Nc1nc(C(F)(F)F)nn1C2c1ccc(F)c(Br)c1 (stereo unspecified)
66 | i | CCOC(=O)c1c(NC(=O)C2C3C=CC(C3)C2C(=O)O)sc2c1CC(C)(C)OC2 (stereo unspecified)
67 | 20 | CCCCCCC1(C)N=C(c2ccc3c(c2)OCO3)CC(c2cc(Br)ccc2O)N1 (stereo unspecified)
68 | 5 | CC(C)Cn1cc(C(=O)NCCc2ccccc2Cl)c2c3ccccc3n(C)c2c1=O
69 | i | CC1=CC(C)C(COC(=O)NC2CCCCC2)(COC(=O)NC2CCCCC2)C(C)C1 (stereo unspecified)
70 | 8 | CCCOC(=O)C1=C(C)NC2=C(C(=O)C(C(=O)OC)C(C)C2)C1c1ccc(C)c([N+](=O)[O-])c1 (stereo unspecified)
71 | i | CCCN(CCC)Cc1c(O)ccc2c(=O)c(-c3ccccc3OC)c(C(F)(F)F)oc12
72 | 6 | COc1ccc(OC)c(Nc2c3c(nc4cc(Cl)ccc24)CCCC3)c1
73 | 7 | CCCc1cc(=O)oc2cc(OC)ccc12
74 | 22 | CCCN(CCC)Cc1c(O)ccc2c(=O)c(Oc3cccc(C)c3)c(C(F)(F)F)oc12
75 | i | O=C(c1ccc(COc2ccccc2Br)o1)N1CCCCCC1
76 | i | CCN1CCN(C(=O)c2cn(CC(C)C)c(=O)c3cc(OC)c(OC)cc23)CC1
77 | i | O=C(C1CCC(CNS(=O)(=O)c2ccc(Br)s2)CC1)N1CCN(c2cccc(C(F)(F)F)c2)CC1 (stereo unspecified)
78 | i | CC(C)P(=O)(C(C)C)C(c1cc(C(C)(C)C)c(O)c(C(C)(C)C)c1)N1CCCCC1 (stereo unspecified)
79 | i | COc1ccc(N2CCN(C(=O)c3cn(CC(C)C)c(=O)c4c3c3ccccc3n4C)CC2)cc1
80 | i | CCCOc1ccc(C2C(C(=O)OCC(C)C)=C(C)NC3=C2C(=O)CC(c2ccc(Cl)cc2)C3)cc1 (stereo unspecified)
81 | 10 | COc1cc2c(C(=O)N3CCC(Cc4ccccc4)CC3)cn(CC(C)C)c(=O)c2cc1OC
82 | i | Cc1sc2ncn(CC(=O)Nc3ccccc3C(F)(F)F)c(=O)c2c1S(=O)(=O)N1CCC(C)CC1
83 | i | Cc1cc(C)cc(Oc2c(C(F)(F)F)oc3c(CN4CCCCC4)c(O)ccc3c2=O)c1
84 | 57 | CCC1CCCCN1Cc1c(O)ccc2c(=O)c(Oc3ccc(OC)cc3)c(C(F)(F)F)oc12 (stereo unspecified)
85 | 22 | CCCCc1c(O)nc(SCC(=O)N2CCOCC2)n(-c2ccccc2OC)c1=O
86 | i | COc1cc2c(C(=O)NCCCN3CCN(C)CC3)cn(CC(C)C)c(=O)c2cc1OC
87 | 13 | COC(=O)C1C(=O)C2=C(CC1C)NC(C)=C(C(=O)OC1CCCCC1)C2c1cccc(OC)c1 (stereo unspecified)
88 | i | CCCCn1cc(C(=O)O)c2ccccc2c1=O
89 | i | CCOc1ccccc1NC(=O)C(NS(=O)(=O)c1ccc2c(c1)CCCN2C(C)=O)C(C)C (stereo unspecified)
90 | i | CC(=O)N1CCc2cc(S(=O)(=O)NC(C(=O)Nc3ccccn3)C(C)C)ccc21 (stereo unspecified)
91 | 28 | N#Cc1c2c(c(N3CCN(CCO)CC3)n3c1nc1ccccc13)CCCC2
92 | i | CCCCCn1c(CN2CCN(c3cccc(Cl)c3)CC2)nc2c1c(=O)n(C)c(=O)n2C
93 | 3 | COc1cc([N+](=O)[O-])cc2c1NC(c1ccc(Cl)cc1)C1CC=CC21 (stereo unspecified)
94 | 47 | CCOc1cc(C2NC(=O)N(C)C(C)=C2C(=O)OC2CCCC2)cc(Br)c1O (stereo unspecified)
95 | 33 | CCSCCOC(=O)C1=C(C)NC2=C(C(=O)C(C(=O)OC)C(C)C2)C1c1ccc(SC)cc1 (stereo unspecified)
96 | 9 | CCC(C)OC(=O)C1=C(C)NC2=C(C(=O)C(C(=O)OC)C(C)C2)C1c1ccccc1[N+](=O)[O-] (stereo unspecified)

# Among those listed so far, three contain a furan ring, fused or not.
no. | FPR | Molecule
6 | i | O=C(CSc1nc2ccccc2c(=O)n1CC1CCC(C(=O)N2CCN(c3ccccc3)CC2)CC1)NCc1ccco1 (stereo unspecified)
55 | 7 | CCCc1cc2c(=O)c(-c3ccc(C(=O)OCC)o3)c(C(=O)OCC)oc2cc1OC
75 | i | O=C(c1ccc(COc2ccccc2Br)o1)N1CCCCCC1

# By substructure, the compounds so far with bromine (six)
no. | FPR | Molecule
10 | 14 | CC(C)C(NCCC(O)c1ccc(Br)cc1)C(=O)O (stereo unspecified)
65 | i | CC1(C)CC(=O)C2=C(C1)Nc1nc(C(F)(F)F)nn1C2c1ccc(F)c(Br)c1 (stereo unspecified)
67 | 20 | CCCCCCC1(C)N=C(c2ccc3c(c2)OCO3)CC(c2cc(Br)ccc2O)N1 (stereo unspecified)
75 | i | O=C(c1ccc(COc2ccccc2Br)o1)N1CCCCCC1
77 | i | O=C(C1CCC(CNS(=O)(=O)c2ccc(Br)s2)CC1)N1CCN(c2cccc(C(F)(F)F)c2)CC1 (stereo unspecified)
94 | 47 | CCOc1cc(C2NC(=O)N(C)C(C)=C2C(=O)OC2CCCC2)cc(Br)c1O (stereo unspecified)
